# Compound activity as filed in PubChem BioAssay.
# Bead autofluor = counter-screen for toxin protease inhibitors: compound fluorescence. compound autofluorescence counterscreen, microsphere flow cytometry; active compounds read high. fluorescence intensity (test concentration not listed). actives 3.1% (n = 360,000);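 active means at least 3 SD above the mean of all compounds, about 16000 in these data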;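 further: 100 nL of 1 mM stock went into each well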
# ugtP null kill = compounds lethal to S. aureus RN4220 ugtP deletion mutant. AID 1259309. growth inhibition, % (concentration not given with the values). actives 0.54% (n = 330,000). OD600 growth, 16 h; some inactives read as strong as hits;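 active means z-score under -3 and OD600 up to 0.15 on both plates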;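 further: plate controls were untreated wells for no effect and antibiotic for full effect; wells of about 80 µL received 100 nL stock; the first replicate is given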
# Sa RN4220 lethal = kills Staphylococcus aureus RN4220 | S. aureus RN4220 growth, OD600, 16 h | inhibition, % (no concentration beside the values) | actives 0.33% (n = 330,000);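 active means z-score of -3 or lower and OD600 up to 0.18 on both plates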;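 further: plate controls were untreated cells for no effect and reference antibiotic for full effect; stock transfer was 100 nL into about 80 µL; one replicate is shown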
# BJeLR lethal = kills HRASV12-expressing BJeLR cells. actives 0.17% (n = 300,000). BJeLR (HRASV12) viability, CellTiter-Glo ATP luminescence, 48 h; reference of the scale not given here. inhibition, % (no concentration beside the values);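 active means replicate mean above 50%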;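 further: 50 nL library stock added to about 25 µL; numbers are from one replicate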
# Mtb hypoxia inh = reduces hypoxia-regulated biosensor signal in M. tuberculosis; M. tuberculosis hypoxia-regulated fluorescent reporter, fluorescence; AID 1159583; fluorescence inhibition, % (no concentration beside the values); actives 0.1% (n = 300,000);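 active means 35 to 45% if threefold the growth effect, above 45% if 1.5-fold the growth effect; inactive means the rest, general growth blockers included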;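 further: wells of about 50 µL received 100 nL stock; 0% = vehicle wells and 100% = reference inhibitor wells; whole bacteria with a GFP reporter of the hypoxia response; strong numbers were not always called active; many hits fall short of the cut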
# PrP UTR inh = suppresses PrP 5' UTR mRNA reporter expression; cell-based PrP 5' UTR mRNA reporter, plate reader; inhibition, % (no concentration beside the values); actives 0.35% (n = 340,000);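 active means every replicate at 50% or more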;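 further: 0 = median of the neutral control wells; tested in H4 reporter cells; numbers are from one replicate; inactives centre near -14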
# Mtb hypoxia inh growth = second read-out of Mtb hypoxia inh, no call of its own (marks repeat the call); growth inhibition, %; measured here: M. tuberculosis growth (absorbance);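 0% = vehicle and 100% = reference antibiotic; read after six days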
# Numbers without * were called inactive; . = no result given.
SMILES,Bead autofluor,ugtP null kill,Sa RN4220 lethal,BJeLR lethal,Mtb hypoxia inh,Mtb hypoxia inh growth,PrP UTR inh
CC1CCCCN1C(=O)c1ccc(NC(=O)c2ccccc2Cl)cc1 (stereo not drawn),4453,5.9,6.0,-10.6,17.6,13.3,-21.6
CC1=C(C(=O)Nc2ccccc2C)C(c2ccc(C)o2)NC(=S)N1 (stereo not drawn),2137,0.1,3.7,1.3,5.6,4.9,-17.5
Cc1cc([N+](=O)[O-])nn1CC(=O)c1ccccc1,4751,16.1,2.7,-5.0,3.2,17.3,-17.9
N#CCCN1CCN(C2=NC(=O)/C(=C\c3cccs3)S2)CC1,3287,4.0,6.0,-9.4,3.8,19.7,-17.0
CN(C(=O)c1cccc([N+](=O)[O-])c1)c1ccccc1C(=O)NCc1ccccc1,5635,-0.7,0.4,-6.4,6.9,7.3,-43.5
CCN(CC)S(=O)(=O)c1ccc(NC(=O)COC(=O)c2cc(S(=O)(=O)Nc3ccc(OC)cc3)ccc2O)cc1,4212,-1.2,12.8,-8.7,11.0,3.9,-4.1
O=C(Nc1ccc(C(=O)N2CCN(c3ccc(F)cc3)CC2)cc1)C1=CSCCO1,5161,3.7,1.8,3.9,2.8,1.0,-21.8
CCOC(=O)C1(CCOc2ccccc2)CCN(Cc2ccc(COC)o2)CC1,2096,11.1,2.8,-0.2,14.5,-0.5,-20.3
Cc1ccc(S(=O)(=O)N2CCOCC2)cc1C(=O)O,9979,3.8,2.4,3.5,4.8,5.0,.
COc1cccc(C2C(C(=O)OCc3ccccc3)=C(C)Nc3ncnn32)c1OC (stereo not drawn),5390,5.1,-1.1,-11.5,.,.,-16.1
O=C(CSC1=Nc2ccccc2C2CC=NN12)Nc1ccc(F)c(F)c1F (stereo not drawn),2787,4.8,7.7,.,-8.5,-7.8,-4.8
CCOC(=O)c1c(C)[nH]c(C(=O)OCC(=O)Nc2cc(Cl)ccc2OC)c1C,16877*,-3.5,0.2,3.1,4.0,11.7,-3.5
Cc1ccc(S(=O)(=O)N(CCC(=O)N2CCOCC2)c2ccccc2)cc1,5187,4.9,4.8,.,11.6,7.4,-10.4
CC(C)(C)n1cc(S(=O)(=O)c2ccccc2)[nH]c1=O,4779,3.0,6.6,-1.2,7.7,0.5,-11.4
Cc1cccc(N2CCC(N3CCN(C4CCCCC4)C(CCO)C3)CC2)c1C (stereo not drawn),2502,-1.6,0.4,2.2,-9.3,6.5,-14.1
COc1ccc(/C=C2\SC(=S)N(CCCC(=O)N3CCN(C)CC3)C2=O)cc1,4587,33.5,-4.9,-2.9,-8.0,2.6,9.9
O=C(COc1ccccc1-c1ccccc1)N/N=C/c1ccc2ccccc2c1,2137,.,.,36.9,.,.,47.5
O=C(OCCCOC(=O)c1ccc([N+](=O)[O-])o1)c1ccc([N+](=O)[O-])o1,6720,4.0,2.1,1.5,70.7*,38.3*,-15.9
COc1ccc(NC(=O)CN(c2ccc([N+](=O)[O-])cc2)S(=O)(=O)c2ccccc2)cc1,9163,22.0,-2.6,-2.1,4.5,0.1,-1.7
Cc1ccccc1NC(=O)CCN1C(=O)CSC1=O,3618,7.2,3.3,1.0,18.1,9.2,-2.0

# Copied from the listing for reference:
SMILES,Bead autofluor,ugtP null kill,Sa RN4220 lethal,BJeLR lethal,Mtb hypoxia inh,Mtb hypoxia inh growth,PrP UTR inh
O=C(COc1ccccc1-c1ccccc1)N/N=C/c1ccc2ccccc2c1,2137,.,.,36.9,.,.,47.5
O=C(OCCCOC(=O)c1ccc([N+](=O)[O-])o1)c1ccc([N+](=O)[O-])o1,6720,4.0,2.1,1.5,70.7*,38.3*,-15.9
COc1ccc(NC(=O)CN(c2ccc([N+](=O)[O-])cc2)S(=O)(=O)c2ccccc2)cc1,9163,22.0,-2.6,-2.1,4.5,0.1,-1.7
Cc1ccccc1NC(=O)CCN1C(=O)CSC1=O,3618,7.2,3.3,1.0,18.1,9.2,-2.0

# The listing continues:
SMILES,Bead autofluor,ugtP null kill,Sa RN4220 lethal,BJeLR lethal,Mtb hypoxia inh,Mtb hypoxia inh growth,PrP UTR inh
CC(=O)Nc1cccc(OCCCNS(=O)(=O)c2ccc(C#N)cc2)c1,5910,1.9,2.5,3.4,1.6,0.4,-1.0
O=S(=O)(c1ccc2c(c1)OCCO2)N1CCC(c2nc3ccc(Cl)cc3[nH]2)CC1,15046,-10.6,-6.3,0.3,-1.9,-1.4,-32.6
COc1ccc(OC)c(Nc2cc(C)c3ccccc3n2)c1,3352,-6.1,-9.6,-7.1,-10.7,2.5,-13.0
Cc1c(C(=O)O)cccc1-c1ccc(/C=C2/NC(=O)N(c3ccccc3)C2=O)o1,3305,6.7,8.4,3.4,-1.9,8.1,-5.9
S=c1[nH]nc(C2COc3ccccc3O2)o1 (stereo not drawn),3145,-1.8,-0.3,6.9,2.5,11.3,-4.6
Cc1ccc(NC(=S)NCc2ccc(S(N)(=O)=O)cc2)c(C)c1,3408,9.5,5.5,-3.0,5.7,-1.3,-5.9
O=S(N1CCc2ccccc21)C12CC3CC(CC(C3)C1)C2 (stereo not drawn),4427,13.3,2.2,7.5,19.2,12.5,-105.8
COc1ccc(CC(=O)NC(C)c2nnc(SCc3nc4ccccc4c(=O)[nH]3)n2C)cc1 (stereo not drawn),3300,0.3,1.9,-1.2,2.1,-4.1,-13.2
COc1ccc(NCc2cc(=O)oc3cc(NC(C)=O)ccc23)cc1,4185,14.4,0.4,-0.4,18.5,5.1,-20.8
CC(C)(C)NC(=O)CN(C(=O)Cn1nnc(-c2ccccc2F)n1)c1cccc2c1CCCC2,17013*,-2.3,1.0,-1.8,-3.7,-2.8,-14.9
Cc1cc2oc(=O)cc(Cn3ccnc3)c2cc1C,16965*,-2.0,3.2,2.7,1.3,-1.7,-5.7
Cc1cc(C)c(C)c(S(=O)(=O)NCc2cccnc2)c1C,11662,-4.7,6.5,4.5,6.6,4.7,-18.2
COc1ccc(C2c3ccc4ccccc4c3Oc3ncn(CCO)c(=N)c32)cc1OC (stereo not drawn),3722,.,.,-12.8,.,.,0.6
Cc1cc(N2C(=O)C(O)=C(C(=O)c3ccco3)C2c2ccc([N+](=O)[O-])cc2)no1 (stereo not drawn),4332,-1.9,7.2,-3.4,-5.1,-3.4,5.8
BrC(=C\c1ccccc1)/C=N/Nc1nc2ccccc2[nH]1,10685,.,.,-3.6,.,.,-29.8
CC(C)C/C(=N/O)c1cn(C)c2ccccc12,5295,.,.,2.2,.,.,-19.2
Cc1[nH]n(-c2ccccc2)c(=O)c1C=Nc1cnc2ccccc2c1,3432,-5.2,6.9,6.8,5.6,0.0,-14.0
CC(C)C[C@@]12C(=O)N(c3cccc(F)c3)C(=O)N1[C@H](c1ccc(F)cc1)[C@@H]1C(=O)N(C3CCCCC3)C(=O)[C@@H]12,3596,.,.,-10.0,.,.,-17.1
OC(CNCc1cccnc1)COc1ccc2ccccc2c1 (stereo not drawn),4553,0.6,5.2,0.0,-1.0,5.0,-50.2
SC(COCc1ccccc1)CN1CCN(Cc2ccc3c(c2)OCO3)CC1 (stereo not drawn),2411,.,.,-0.5,.,.,-8.8

# As entered above:
# Sa RN4220 lethal, Cc1ccc(NC(=S)NCc2ccc(S(N)(=O)=O)cc2)c(C)c1 stands at 5.5
# Mtb hypoxia inh growth, CCN(CC)S(=O)(=O)c1ccc(NC(=O)COC(=O)c2cc(S(=O)(=O)Nc3ccc(OC)cc3)ccc2O)cc1 stands at 3.9
# Mtb hypoxia inh, CC(=O)Nc1cccc(OCCCNS(=O)(=O)c2ccc(C#N)cc2)c1 stands at 1.6
# ugtP null kill, COc1ccc(NCc2cc(=O)oc3cc(NC(C)=O)ccc23)cc1 stands at 14.4
# ugtP null kill, Cc1ccccc1NC(=O)CCN1C(=O)CSC1=O stands at 7.2

# An excerpt from above, reduced to Mtb hypoxia inh, BJeLR lethal and Bead autofluor.
compound | Mtb hypoxia inh | BJeLR lethal | Bead autofluor
CC(=O)Nc1cccc(OCCCNS(=O)(=O)c2ccc(C#N)cc2)c1 | 1.6 | 3.4 | 5910
Cc1cc(C)c(C)c(S(=O)(=O)NCc2cccnc2)c1C | 6.6 | 4.5 | 11662
O=S(N1CCc2ccccc21)C12CC3CC(CC(C3)C1)C2 (stereo not drawn) | 19.2 | 7.5 | 4427
COc1ccc(OC)c(Nc2cc(C)c3ccccc3n2)c1 | -10.7 | -7.1 | 3352

# Additional structures:
SMILES,Bead autofluor,ugtP null kill,Sa RN4220 lethal,BJeLR lethal,Mtb hypoxia inh,Mtb hypoxia inh growth,PrP UTR inh
O=[N+]([O-])c1ccccc1-c1ccc(C=Nn2cnnc2)o1,.,0.5,1.2,.,8.2,-1.4,.
Nc1nc(N)nc(-c2cc(C(F)(F)F)ccc2Cl)n1,3913,-9.8,4.0,.,4.1,5.8,-0.6
CN(C)c1ccc(C2/C(=C(/O)c3ccccc3)C(=O)C(=O)N2CCCC(=O)O)cc1 (stereo not drawn),4773,9.2,2.6,-6.1,-10.5,2.0,-2.7
CC(C)(C)n1ncc2c(=O)n(CC(=O)NCc3ccc(F)cc3)cnc21,2961,-1.6,6.1,7.1,-5.2,0.0,-93.8
CC(=Nc1ccc(C)cc1C)c1sc2ccccc2c1O,4654,-4.2,-6.1,6.6,5.0,5.0,-87.7
CC12C(=O)N(c3nccs3)C(=O)C1C1C=CC2C1 (stereo not drawn),10547,5.9,4.9,1.1,-0.3,0.0,-22.1
CC(C)Oc1ccccc1C1CC(=O)Nc2cc3c(cc21)OCO3 (stereo not drawn),7462,-3.4,4.4,28.9,1.7,-0.1,47.5
COc1cc(NC(=O)NC2Cc3ccccc3C2)cc(OC)c1,3427,13.0,3.2,2.3,11.7,12.1,-23.1
CC1(C)Cc2c(ccc3ccccc23)C(c2cc3ccccc3oc2=O)=N1,8175,-4.2,-0.8,-1.8,10.5,3.7,-51.7
Cc1ccc2cc(CN(C(=O)c3cccnc3)C(C)C)c(=O)[nH]c2c1,10901,1.0,1.0,8.0,1.6,6.4,-23.5
Oc1ccccc1C=Nn1c(-c2ccccc2)n[nH]c1=S,.,8.8,10.8,.,15.9,9.9,.
Cc1ccc(Cl)cc1NC(=S)N1CCCCCC1,4618,-2.1,2.2,.,13.1,3.9,-15.6
Cc1cc(C(=O)OCC(=O)Nc2ccccc2)c(C)o1,3243,3.3,12.3,-9.9,-0.6,6.6,-36.2
CN(C(=S)NCCN1CCOCC1)C(c1ccccc1)c1ccccc1,3444,1.3,7.0,9.1,16.2,14.2,-25.1
COCCN(CCOC)C(=S)Nc1ccccc1,3412,-3.2,-0.9,2.3,11.3,-5.4,0.0
CC1(C)C(=O)OC(c2cccn2-c2ccc([N+](=O)[O-])cc2)C2(CCCCC2)C1=O (stereo not drawn),2461,1.7,4.9,-0.9,.,.,-24.6
Cc1ccc(N(C(=O)CNC(=O)c2ccco2)C(C(=O)NC2CCCCC2)c2ccncc2)c(C)c1 (stereo not drawn),5223,6.7,5.3,-2.5,-2.2,-3.3,-12.4
O=C(COC(=O)c1ccc(Br)o1)Nc1nc2ccccc2s1,16288*,3.5,4.4,1.4,-0.5,10.0,-13.3
O=Cc1c(NCc2cccc(F)c2)c2ccccc2[nH]c1=O,3664,18.6,2.2,3.2,6.7,10.4,-22.9
COc1ccc(C(C)=O)cc1COC(=O)c1ccc2c(c1)OCO2,3548,-16.6,7.0,4.1,5.2,11.5,-1.2
COc1ccc(-n2c(=O)c3ccccc3n(CC(=O)NC3CCCCC3)c2=O)cc1,3578,5.4,3.9,19.8,4.4,1.8,-4.6
CCOCCCNC(=O)/C=C1\Sc2ccccc2N(Cc2ccccc2F)C1=O,4340,3.5,0.5,4.3,4.5,13.5,.
C[C@@H]1CC[C@H]2C(=O)N3[C@@H](CC[C@@H](C)[C@@H]3c3ccc(Br)cc3)C(=O)N2[C@H]1c1ccc(Br)cc1,4224,.,.,0.8,.,.,9.8
Cc1cccc(C)c1OCc1cc(C(=O)N(C)CCc2ccccn2)no1,6289,13.1,4.1,-18.0,10.9,0.0,-5.2
CC(=NNC(=O)c1cccc(Cl)c1)C1C(=O)c2ccccc2C1=O,.,56.3,72.6,.,0.2,1.0,.
N#Cc1ccccc1COC(=O)c1cccnc1N,3673,5.6,3.1,-4.9,5.8,-4.0,-9.7

# Fetched by compound from the list above:
SMILES,Bead autofluor,ugtP null kill,Sa RN4220 lethal,BJeLR lethal,Mtb hypoxia inh,Mtb hypoxia inh growth,PrP UTR inh
Cc1cccc(C)c1OCc1cc(C(=O)N(C)CCc2ccccn2)no1,6289,13.1,4.1,-18.0,10.9,0.0,-5.2
C[C@@H]1CC[C@H]2C(=O)N3[C@@H](CC[C@@H](C)[C@@H]3c3ccc(Br)cc3)C(=O)N2[C@H]1c1ccc(Br)cc1,4224,.,.,0.8,.,.,9.8
